Screens (PubChem BioAssay)
Mtb hypoxia inh – reduces hypoxia-regulated biosensor signal in M. tuberculosis | M. tuberculosis hypoxia-regulated fluorescent reporter, fluorescence | fluorescence inhibition, % (no concentration beside the values) | actives 0.1% (n = 300,000) | AID 1159583;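 active means 35 to 45% if threefold the growth effect, above 45% if 1.5-fold the growth effect; inactive means the rest, general growth blockers included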;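 further: wells of about 50 µL received 100 nL stock; 0% = vehicle wells and 100% = reference inhibitor wells; whole bacteria with a GFP reporter of the hypoxia response; strong numbers were not always called active; many hits fall short of the cut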
Bead autofluor – counter-screen for toxin protease inhibitors: compound fluorescence. actives 3.1% (n = 360,000). fluorescence intensity (concentration not given with the values). AID 624483. compound autofluorescence counterscreen, microsphere flow cytometry; hits give high values;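 active means at least 3 SD above the mean of all compounds, about 16000 in these data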;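 further: 100 nL of 1 mM stock went into each well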
BJeLR viability – BJeLR cell viability loss; BJeLR (HRASV12) viability, CellTiter-Glo ATP luminescence, 48 h; reference of the scale not given here; inhibition, % (concentration not given with the values); actives 0.17% (n = 300,000);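 active means replicate mean above 50%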;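 further: 50 nL library stock added to about 25 µL; numbers are from one replicate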
RN4220 kill – S. aureus RN4220 growth inhibition. inhibition, % (concentration not given with the values). OD600, 16 h. actives 0.33% (n = 330,000);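 active means z-score of -3 or lower and OD600 up to 0.18 on both plates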;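 further: plate controls were untreated cells for no effect and reference antibiotic for full effect; stock transfer was 100 nL into about 80 µL; one replicate is shown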
ugtP null kill – growth inhibition of S. aureus ugtP deletion strain; S. aureus RN4220 ugtP deletion, OD600 growth, 16 h; some inactives read as strong as hits; growth inhibition, % (test concentration not listed); actives 0.54% (n = 330,000); AID 1259309;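 active means z-score under -3 and OD600 up to 0.15 on both plates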;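 further: plate controls were untreated wells for no effect and antibiotic for full effect; wells of about 80 µL received 100 nL stock; the first replicate is given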
PrP UTR inh – inhibition of PrP 5' UTR reporter expression. cell-based PrP 5' UTR mRNA reporter, plate reader. inhibition, % (test concentration not listed). actives 0.35% (n = 340,000);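 active means every replicate at 50% or more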;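 further: 0 = median of the neutral control wells; tested in H4 reporter cells; numbers are from one replicate; inactives centre near -14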
Mtb hypoxia inh growth – recorded beside Mtb hypoxia inh, whose call it bears; growth inhibition, %; measured here: M. tuberculosis growth (absorbance);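 0% = vehicle and 100% = reference antibiotic; read after six days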
Starred values were filed as active, the others as inactive; . = no result given. Compounds were not picked by outcome; about 4% have a hit in one of these screens.

SMILES	Mtb hypoxia inh	Mtb hypoxia inh growth	Bead autofluor	BJeLR viability	RN4220 kill	ugtP null kill	PrP UTR inh
CC(=O)Nc1cc2c(cc1NC(=O)Cn1nc(-c3ccc4c(c3)OCCO4)ccc1=O)OCCO2	.	.	2264	1	0.6	0	-13
CCOc1ccc(C(=O)N[C@H](C(=O)Nc2ccc(S(=O)(=O)Nc3nccs3)cc2)C(C)C)cc1	16	25	3722	.	4.2	11	-13
CCN(CC)C(C(=O)Nc1ccc2c(c1)OCO2)c1ccccc1 (configuration not stated)	0	0	1992	7	5.0	6	-27
Cc1oc(-c2ccc(Cl)cc2)cc1-c1nn2c(-c3ccoc3C)nnc2s1	8	2	23295*	-5	34	-29	7
CN(C)CCN(C(=O)c1ccc(S(=O)(=O)N2CCCC2)cc1)c1nc2ccc(Br)cc2s1	8	2	4890	-1	-1.3	-3	-27
CCOC(=O)C1(Cc2cccc(OC)c2)CCN(C/C=C/c2ccc(OC)cc2)CC1	.	.	2470	9	.	.	-10
CC(=O)N1CC=CC1(C)C(=O)NCc1cc(F)cc(C(F)(F)F)c1 (configuration not stated)	13	7	3949	2	4.5	-8	-29
COc1ccc(OC)c(/C=C2\SC(=S)N(C(C(=O)O)c3ccccc3)C2=O)c1 (configuration not stated)	4	4	4710	-3	13	10	-21
CCCCC#Cc1ccc(C(=O)NNC(=O)Nc2cc(Cl)cc(Cl)c2)o1	6	4	4267	0	-3.2	-24	-21
O=C(O)c1cccc(NC(=O)c2ccc3c(c2)C(=O)N(c2cccc([N+](=O)[O-])c2)C3=O)c1	5	1	3035	12	1.6	3	4
COc1cc(OC)c(OC)cc1CN1CCN(C(=O)c2cccc3ccccc23)CC1	6	2	.	-1	5.3	3	-14
CCOC(=O)c1cn2nc(-c3ccc(OC)cc3)cc2nc1C1CCN(C(=O)OC(C)(C)C)CC1	0	11	3892	-16	-6.6	1	-2
CCOC(=O)CSc1nc(C)c(C(=O)OCC)s1	.	.	4240	-10	4.8	4	-8
Cn1cc(CN2CCc3sccc3C2)c(-c2ccccc2F)n1	5	1	4748	-7	1.9	8	-34
N#CC(C#N)=Cc1ccc(-c2ccccc2F)o1	-10	-8	2154	.	-1.5	-9	-29
CC(=O)OCCNc1nc(-c2ccccc2)nc2ccccc12	0	11	2458	8	0.8	-10	-17
O=c1c2ccccc2nc(CNCc2ccco2)n1-c1ccc(F)cc1	.	.	2252	4	.	.	-20
CCC1C(C#N)=C(N)OC2=C1C(=O)CC(C)(C)C2 (configuration not stated)	1	3	10952	-1	4.1	6	-32
Cc1ccc(-c2cc(C(=O)Nc3ccc4c(c3)OCCO4)c3ccccc3n2)cc1	-3	3	3270	-7	-5.0	-5	-55
CC(=NNC(=O)COc1ccccc1)c1cccs1	5	4	.	.	5.2	3	.
COc1ccc(/C=C/C(=O)NC2=NCCS2)cc1OC	4	5	3406	12	2.4	0	-28
CC1CCN(S(=O)(=O)c2ccc(NC(=O)c3ccncc3)cc2)CC1	5	-3	5289	-3	1.7	2	-20
CCCn1nnnc1SCC(=O)Nc1sc(C)c(C)c1C#N	15	5	.	0	7.6	1	.
Clc1ccc(CONC=Nc2ncnc3sccc23)cc1	7	4	.	.	-10	-1	.
O=C(NCc1ccccn1)c1ccc(Cn2c(=S)[nH]c3ccc(Br)cc3c2=O)cc1	13	6	4032	0	5.9	-1	71*

Results in ugtP null kill (3 entries from above):
compound,ugtP null kill
CC(=O)Nc1cc2c(cc1NC(=O)Cn1nc(-c3ccc4c(c3)OCCO4)ccc1=O)OCCO2,0
Cn1cc(CN2CCc3sccc3C2)c(-c2ccccc2F)n1,8
Cc1ccc(-c2cc(C(=O)Nc3ccc4c(c3)OCCO4)c3ccccc3n2)cc1,-5

Exported with bars between the fields: 4 of the compounds above.
molecule | Mtb hypoxia inh | Mtb hypoxia inh growth | Bead autofluor | BJeLR viability | RN4220 kill | ugtP null kill | PrP UTR inh
COc1cc(OC)c(OC)cc1CN1CCN(C(=O)c2cccc3ccccc23)CC1 | 6 | 2 | . | -1 | 5.3 | 3 | -14
CCOC(=O)c1cn2nc(-c3ccc(OC)cc3)cc2nc1C1CCN(C(=O)OC(C)(C)C)CC1 | 0 | 11 | 3892 | -16 | -6.6 | 1 | -2
CCOC(=O)CSc1nc(C)c(C(=O)OCC)s1 | . | . | 4240 | -10 | 4.8 | 4 | -8
Cn1cc(CN2CCc3sccc3C2)c(-c2ccccc2F)n1 | 5 | 1 | 4748 | -7 | 1.9 | 8 | -34

Next section.
SMILES	Mtb hypoxia inh	Mtb hypoxia inh growth	Bead autofluor	BJeLR viability	RN4220 kill	ugtP null kill	PrP UTR inh
COC(=O)[C@@]1(Cc2ccccc2)[C@H]2C(=O)N(C)C(=O)[C@H]2[C@H]2CN=C(SCC(=O)c3ccccc3)N21	-1	4	3913	.	1.9	-12	6
CN1CCN(Cc2nc3ccccc3c(=O)n2CC#N)CC1	13	3	2663	2	-0.6	1	-24
Fc1ccc(-c2cc(C(F)(F)F)nc(N3CCCCC3)n2)cc1	7	0	6421	-17	-1.7	72	-11
Cc1cccc(N2C(=O)CSC2c2cccnc2)c1 (configuration not stated)	7	-1	6410	0	0.8	8	-24
CCc1ccc(N(C(=O)c2ccco2)C(C(=O)NC2CCCC2)c2ccncc2)cc1 (configuration not stated)	11	2	3850	11	1.6	5	-30
C=CCNC(=S)N1CCN(S(=O)(=O)c2ccc(C)cc2)CC1	-4	-4	3249	0	1.5	5	.
Cc1ccccc1NC(=O)CCCC(=O)c1ccccc1	-7	1	3992	1	-0.3	2	-16
CN(C)CCn1c2c(c(SCC(=O)Nc3cccc4ccccc34)nc1=O)CCCC2	2	10	5650	5	2.3	2	4
CCCn1c(SCC(=O)Nc2ccccc2-c2ccccc2)nnc1-c1ccoc1C	.	.	2947	4	-0.7	6	-12
CCOc1ccc(NC(=O)C(C)Oc2ccccc2C(=O)Nc2cccc(Cl)c2Cl)cc1 (configuration not stated)	15	6	4010	-6	-7.6	-3	-2
COCCN(Cc1ccc(F)cc1)C(=O)c1cc2ccccc2oc1=O	5	3	3658	6	3.5	10	-28
Cc1ccc(C(=O)Nc2ccc(C)c(S(=O)(=O)Nc3ccccc3Cl)c2)s1	-4	-3	7878	9	7.1	-10	-13
O=C(ON=Cc1ccc(Br)cc1)c1ccc(F)cc1	4	10	.	.	8.2	3	.
CC(=O)Nc1ccc(C(=O)OCC(=O)NC(=O)NC2CCCCC2)cc1	1	5	8611	-1	3.7	-3	-9
COC(=O)C1CCN(c2nc3ccccc3nc2C(C#N)C(=O)NCCc2ccccc2)CC1 (configuration not stated)	1	9	2884	7	-8.7	-2	-16
CCC(C)(C(=O)NC1CCCCC1)N(C(=O)CNC(C)=O)c1c(C)n(C)n(-c2ccccc2)c1=O (configuration not stated)	1	1	3852	7	2.6	-4	-13
Cc1ccccc1Oc1nc2c(c(=O)n(C)c(=O)n2C)n1C	4	5	3972	-11	2.0	3	-11
CC1=C(C)CS(=O)N(S(=O)(=O)c2ccc(Cl)cc2)C1 (configuration not stated)	.	.	3026	-9	.	.	-13
Cn1cnnc1SCC(=O)Nc1nc(-c2ccc(F)cc2)cs1	-2	6	3915	13	7.7	4	-28
c1coc(-c2nnc3n2C2(CCCC2)Cc2ccccc2-3)c1	4	0	16006	-4	6.9	8	-1
O=C(Nc1ccccc1)C1=C[C@H](C2CCCCC2)C[C@H](OCCCCO)O1	.	.	3466	-4	.	.	-13
O=C(NCCN1CCOCC1)C1CCN(Cc2ccccc2O)CC1	10	9	9091	5	2.3	3	-10
Cc1cc(OC(=O)c2ccccc2C)c([N+](=O)[O-])c(=O)[nH]1	-11	-5	5574	-3	4.1	-2	-15
O=S(=O)(Nc1ccccn1)c1cnc(Cl)c(Br)c1	0	1	1990	-17	4.9	10	-12
CCOC(=O)c1nnn(-c2nonc2N)c1CN1CCCC1	6	1	3989	-8	3.8	0	-16

Other results follow:
SMILES	Mtb hypoxia inh	Mtb hypoxia inh growth	Bead autofluor	BJeLR viability	RN4220 kill	ugtP null kill	PrP UTR inh
N#Cc1nc(Cc2cccc3ccccc23)oc1N1CCN(c2ccccc2)CC1	1	-3	8033	-16	-1.3	3	-11
CCn1c(SC)nnc1C1CCN(CC(=O)Nc2ccccc2N2CCOCC2)CC1	-12	6	3791	-4	2.7	-3	-10
O=C1CCC(=O)N(c2ccccc2)N1	5	6	3920	2	3.5	4	-13
COc1ccccc1CNC(=O)c1ccoc1C	4	2	8056	-12	5.2	7	-13
CCCCNS(=O)(=O)c1ccc2nc(-c3cccnc3)cc(C(=O)NC3CC3)c2c1	.	.	5092	-1	.	.	-5
CCOC(=O)c1cnc(-c2ccccc2)nc1Oc1ccccc1	.	.	2790	4	-5.8	86*	-16
CC1=CC(C)C(/C=N/N=C(N)N)C(C)C1 (configuration not stated)	.	.	4788	-9	.	.	5
CSc1ccccc1C(=O)NC1CCCc2ccccc21 (configuration not stated)	12	-7	2828	-15	20	0	-5
Cc1ccc(-n2nc3c(SCCN4CCOCC4)nnc(C)c3c2C)cc1	0	-2	5139	-21	-0.2	-5	1
COc1ccccc1Nc1nc(N)nc(CN2CCN(c3ccccc3)CC2)n1	-3	12	21394*	-1	2.0	-4	-10
Cc1cccc(C(=O)N/N=C2/SCC(=O)N2Cc2ccccc2)c1	.	.	3276	-8	.	.	0
Cc1c(C(=O)N2CCN(c3ncccn3)CC2)oc2ccc(Cl)cc12	19	37	3015	.	3.5	11	-11
CCC(=O)Oc1c(C(=O)CC)cc2c(C)cc(=O)oc2c1C	-9	-8	7504	6	4.0	15	-5
CCOC(=O)C1CCN(C(=O)CCCN2C(=O)c3ccccc3C2=O)CC1	5	0	4342	8	5.3	-1	-15
CCS(=O)(=O)N1CCCC(C(=O)NC2CCC(C)CC2)C1 (configuration not stated)	-7	11	2579	-17	8.7	-4	-36
Cc1ccccc1C([O-])=Nc1ccc[n+](-c2nc3ccccc3nc2NS(=O)(=O)c2ccccc2)c1	6	4	.	-8	3.0	-1	.
CCOC(=O)Nc1ccc2c(c1)N(C(=O)CCN1CCN3CCCC3C1)c1ccccc1CC2 (configuration not stated)	11	6	7853	21	4.5	2	-10
NC(=O)c1cc(S(=O)(=O)NCc2ccccc2)cs1	3	-3	5430	25	3.9	4	-10
CC12CC(c3ccccc3O1)N(C(=O)c1ccc(Br)o1)C(=O)N2c1ccccc1 (configuration not stated)	9	1	3786	18	-2.8	27	-7
O=C(Nc1ccccc1Cl)Oc1ccc(-c2ccccc2)cc1	-9	6	3518	6	9.2	1	-16
Cc1noc(C)c1C(=O)Nc1c(F)cc(F)cc1Br	3	4	23289*	5	2.9	-4	-21

Structures from the list above containing fluorine, in the order listed:
SMILES	Mtb hypoxia inh	Mtb hypoxia inh growth	Bead autofluor	BJeLR viability	RN4220 kill	ugtP null kill	PrP UTR inh
CC(=O)N1CC=CC1(C)C(=O)NCc1cc(F)cc(C(F)(F)F)c1 (configuration not stated)	13	7	3949	2	4.5	-8	-29
Cn1cc(CN2CCc3sccc3C2)c(-c2ccccc2F)n1	5	1	4748	-7	1.9	8	-34
N#CC(C#N)=Cc1ccc(-c2ccccc2F)o1	-10	-8	2154	.	-1.5	-9	-29
O=c1c2ccccc2nc(CNCc2ccco2)n1-c1ccc(F)cc1	.	.	2252	4	.	.	-20
Fc1ccc(-c2cc(C(F)(F)F)nc(N3CCCCC3)n2)cc1	7	0	6421	-17	-1.7	72	-11
COCCN(Cc1ccc(F)cc1)C(=O)c1cc2ccccc2oc1=O	5	3	3658	6	3.5	10	-28
O=C(ON=Cc1ccc(Br)cc1)c1ccc(F)cc1	4	10	.	.	8.2	3	.
Cn1cnnc1SCC(=O)Nc1nc(-c2ccc(F)cc2)cs1	-2	6	3915	13	7.7	4	-28
Cc1noc(C)c1C(=O)Nc1c(F)cc(F)cc1Br	3	4	23289*	5	2.9	-4	-21
